# Vaccinia Venus: inhibitors of vaccinia virus (Venus reporter) | 0.46% of 330,000 active | Potency, µM (titrated, usually from 36.5 µM), without a hit: at the top dose activity change, negative = inhibition, hits mostly inhibitors | Vaccinia virus Venus reporter expression, fluorescence | AID 720580; active means well fitted inhibition curve with a large enough effect; inconclusive means small, poorly fitted or top-dose-only effect; inactive means no such curve, though single readings can be large or run the other way; tested in A549 cells; further: nearly all actives have a fitted effect of over 30% in size; inactives centre near -10
# VACV mCherry inh: inhibitors of vaccinia virus infection (mCherry reporter signal). 0.63% of 310,000 active. Vaccinia virus mCherry reporter infection, fluorescence; about a quarter of the inactives have no number. AID 720579. Potency, µM (highest dose often 36.5 µM), without a hit: at the highest dose activity change, negative = inhibition, most hits filed as inhibitors; active = well fitted inhibition curve with a large enough effect; inconclusive = small, poorly fitted or top-dose-only effect; inactive = no such curve, though single readings can be large or run the other way; tested in A549 cells; further: nearly all actives have a fitted effect of over 35% in size; inactives centre near -10
# The depositor's hits bear a star; i = inactive; ? = inconclusive; nt = not tested or not shown; [ ] = dose if it differs, or a comment. On the % scale 0 is the no-effect control and ±100 the full control effect; potency means the concentration at half of the fitted maximal effect. Compounds were not picked by outcome; 0.82% or so of the library scored in one or more.
SMILES,Vaccinia Venus,VACV mCherry inh
O=C(NCC1CCCO1)c1ccc(CSCc2cccc(F)c2)o1 (stereo unspecified),-20%,-9%
CCN(C(=O)C1CCCN(S(=O)(=O)c2c(C)noc2/C=C/N(C)C)C1)c1cccc(C)c1 (stereo unspecified),-11%,-10%
COc1ccc(C(=O)NCCSc2ccc(C)cc2)cc1,-11%,2%
CC1(C(=O)N2CCCCC2)CCN1C(=O)c1ccccc1CCc1ccccc1 (stereo unspecified),0%,i
COc1ccc(-c2noc(N3CCN(c4ccc(C)cc4)C(C)C3)n2)cc1OC (stereo unspecified),-9%,-20%
Cc1nnc(NC(=O)c2ccccc2F)s1,-7%,-6%
O=C(N/N=C/c1cc([N+](=O)[O-])ccc1O)Nc1ccccc1,-21%,?
COC(=O)c1sccc1NC(=O)Nc1ccc(C)cc1,5%,-11%
Cc1ccc(NC(=O)/C=C\C(=O)N(c2ccc(C(C)C)cc2)C(C(=O)NCc2ccco2)c2ccc(F)cc2)cc1 (stereo unspecified),?,?
CN(C)C(=O)c1ccc(/C=C/c2ccnc3ccccc23)cc1,1%,-22%
Cc1ccc2oc(C(=O)Nc3ccc(S(=O)(=O)N4CCCCCC4)cc3)cc(=O)c2c1,-8%,0%
CCCCN(CC)C(=O)C1CCCN(c2ncnc3c2nc2n3CCCCC2)C1 (stereo unspecified),7%,-3%
COc1ccc(-c2oc(=O)c3cc(OC)c(OC)cc3c2/C=C/c2ccc([N+](=O)[O-])cc2)cc1,-16%,-18%
Cc1cccc2cc(CN(Cc3ccc(F)cc3)C(=O)N3CCOCC3)c(=O)[nH]c12,-10%,-17%
COc1ccccc1OCC(=O)NCCc1nc2ccccc2[nH]1,-16%,nt

# A draw from above in order of SMILES length, rising:
SMILES,Vaccinia Venus,VACV mCherry inh
COC(=O)c1sccc1NC(=O)Nc1ccc(C)cc1,5%,-11%
COc1ccccc1OCC(=O)NCCc1nc2ccccc2[nH]1,-16%,nt
CC1(C(=O)N2CCCCC2)CCN1C(=O)c1ccccc1CCc1ccccc1 (stereo unspecified),0%,i
CCN(C(=O)C1CCCN(S(=O)(=O)c2c(C)noc2/C=C/N(C)C)C1)c1cccc(C)c1 (stereo unspecified),-11%,-10%

# More records follow:
SMILES,Vaccinia Venus,VACV mCherry inh
CC12c3ccccc3C(c3ccccc31)C1C(=O)N(Cc3cccnc3)C(=O)[C@H]12 (stereo partly specified),-11%,-17%
Cc1ccc(C(CC(=O)N2CCCC2)c2ccccc2)c(O)c1C (stereo unspecified),-23%,nt
C[C@@H](C(=O)Nc1cccc(S(=O)(=O)N2CCOCC2)c1)N1C(=O)C2CC=CCC2C1=O (stereo partly specified),-13%,-7%
CC(C)(C)NC(=O)CN(Cc1ccc2c(c1)OCO2)C(=O)CNS(=O)(=O)c1ccc(F)cc1,3%,-12%
Cc1cccc(-n2nc(CC#N)c(C#N)c2N)c1,-15%,-22%
Cc1cc(C)c(S(=O)(=O)N2CCN(C(=O)c3ccc4c(c3)OCO4)CC2)c(C)c1,-23%,-25%
COc1ccc(NC(=O)CN(C)C(=O)c2cc(-c3cccs3)nn2-c2ccccc2)cc1,-28%,-8%
O=C(Nc1ccccc1)N1CCC(c2ccccc2)C1 (stereo unspecified),-7%,nt
CCc1noc(C)c1C(=O)N1CCCC(CCC(=O)NCc2cccc(OC)c2)C1 (stereo unspecified),2%,4%
O=C(NCCCN1CCN(c2cccc(Cl)c2)CC1)c1cccc(N2CCCC2=O)c1,-26%,nt
O=C(COc1ccc(F)cc1)Nc1ccc(S(=O)(=O)Nc2ncccn2)cc1,-8%,-12%
COc1cc(NC(=O)C2CC2)c(C(=O)O)cc1OC,-14%,i
O=C(Nc1ccn(CCCNCC2CCCCC2)c(=O)n1)OCc1ccccc1,-15%,?
O=C(NCC(=O)N(c1cccc(F)c1)C(C(=O)NC1CCCC1)c1ccco1)c1ccco1 (stereo unspecified),3%,3%
CN(Cc1ccccc1)C(=O)CN1C(=O)c2ccccc2C1=O,-5%,-13%
O=C(CSc1ccc(-c2cccs2)nn1)Nc1cccc(F)c1,-23%,-27%
COc1ccc(CNC(=O)C(=O)NCC(c2cccnc2)N2CCN(c3ccccc3)CC2)cc1 (stereo unspecified),?,?
CCN(CC(=O)Nc1ccc(OC)cc1)C(=O)CSCC(=O)Nc1ccc(C)cc1,-12%,-13%
OCCCN1CNC(=S)NC1,-3%,-6%
CCOC(=O)Cn1c2c(c(=N)c3c1CCC3)CCC2,-19%,-17%
Cc1c(NC(=O)c2cc(-c3ccccc3O)on2)c(=O)n(-c2ccccc2)n1C,-9%,-16%
CC(=O)c1ccc(OCCCC(=O)Nc2cccc(S(=O)(=O)N3CCOCC3)c2)cc1,-6%,-4%
COc1cc(C(=O)OCC(=O)N(CC(C)C)C2CCS(=O)(=O)C2)ccc1OCC(C)C (stereo unspecified),7%,1%
COc1ccc(CCNc2cn[nH]c(=O)c2Cl)cc1OC,0%,-13%
COc1cccc(N(C(=O)c2snc(C(N)=O)c2N)C(C(=O)NCC2CCCO2)c2ccc(F)cc2)c1 (stereo unspecified),-16%,-22%
COc1cccc(C2=NOC(C(=O)Nc3cccc(C(C)=O)c3)C2)c1 (stereo unspecified),-5%,-13%
CC(=O)c1cn(Cc2ccc(F)cc2)c2ccccc12,-11%,-4%
O=C(CSCc1ccc(F)cc1)NC1CCCC1,-5%,-8%
Cn1c(=NC(=O)c2ccc3c(c2)OCCO3)sc2cc(S(C)(=O)=O)ccc21,-4%,-11%[7.34 µM]
CN1CCN(C(=O)c2cc3c(c(-c4cccc(-c5cc6ccccc6o5)c4)n2)[C@H](CCO)N(S(=O)C(C)(C)C)C3)CC1 (stereo partly specified),2%,i
O=C(CSc1nnc(CN2CCOCC2)n1-c1ccc(Cl)cc1)Nc1ccc2c(c1)OCO2,-3%,-13%
CCc1ccc(NC(=O)CSc2ccnc(=O)[nH]2)cc1,-11%,-11%
Cc1cc(O)ccc1-c1cccc2nccn12,3%,28%
COc1ccc(CCN(C)C(=O)CNC(=O)c2ccc3c(c2)OCO3)cc1OC,-11%,-8%
O=C(CCCSc1nc2ccccc2[nH]1)NC1CCCCC1,?,i
COC(=O)C1=C(C)N(C)C(=S)NC1c1cc(OC)ccc1OC (stereo unspecified),-8%,-14%
CCOc1ccc(-c2csc(/C(C#N)=C/c3ccc(Br)cc3)n2)cc1,-4%,-13%
CCS(=O)(=O)c1nc2ccccc2n1Cc1ccccc1Cl,-6%,i
O=C(O)c1cc(N2CCCCC2)ccn1,1%,i
CN=C1S/C(=C/c2cn(CC(=O)OC)c3ccccc23)C(=O)N1C,-14%,-20%
CCC(C)NC(=O)c1sc2nc(C)c(C(=O)Nc3ccc(C)cc3C)c(-c3ccc(Br)cc3)c2c1N (stereo unspecified),-6%,-15%
COc1cccc(/C=N/NC(=O)CCCc2ccc(OC)c(C)c2)c1,-2%,-3%
COc1cccc(-c2nc(-c3ccccc3)no2)c1,-10%,i
O=C(NCC1CCCO1)C1CCN(S(=O)(=O)Cc2ccccc2)CC1 (stereo unspecified),-4%,-14%
COc1cccc(CNC(=O)c2c(OC)cc(=O)n3c2CCN(C(=O)c2ccoc2C)CC3)c1,-4%,-11%

# Part of the list above, tab-delimited.
SMILES	Vaccinia Venus	VACV mCherry inh
COC(=O)C1=C(C)N(C)C(=S)NC1c1cc(OC)ccc1OC (stereo unspecified)	-8%	-14%
CCOc1ccc(-c2csc(/C(C#N)=C/c3ccc(Br)cc3)n2)cc1	-4%	-13%
CCS(=O)(=O)c1nc2ccccc2n1Cc1ccccc1Cl	-6%	i
O=C(O)c1cc(N2CCCCC2)ccn1	1%	i
CN=C1S/C(=C/c2cn(CC(=O)OC)c3ccccc23)C(=O)N1C	-14%	-20%

# (list continues)
SMILES,Vaccinia Venus,VACV mCherry inh
O=C(N/N=C/c1ccc(F)cc1)c1cccc(NC(=O)c2ccc(F)cc2)c1,?,?
CCOC(=O)N/N=C/c1cn(CCCOc2ccc(C)cc2)c2ccccc12,-24%,?
C[C@@H]1CN([C@@H](C)CO)C(=O)c2cc(Br)cnc2O[C@H]1CN(C)C(=O)C1CCCCC1,-10%,-6%
CCn1nnnc1NCc1cccc(Cl)c1,-2%,i
COc1cccc(CN2CCNC(=O)C2CC(=O)NCCCn2ccnc2)c1 (stereo unspecified),-9%,i
COc1ccc2cc(S(=O)(=O)N3CCN(C)CC3)ccc2c1,-2%,i
O=C(NC1CCCCC1)N(Cc1ccc(F)cc1)Cc1nc2ccccc2c(=O)[nH]1,?,i
Cc1ccc(CNCc2c(C(=O)O)n(Cc3ccc(C)cc3)c3cc(C)ccc23)cc1,?,11µM*
COc1cccc(C(=O)Nc2ccc(-n3nncc3C(C)(C)C)cc2)c1,-13%,i
CCc1c(C)sc2c1CCN(C(=O)Nc1ccc(F)c(Cl)c1)C2c1ccc(F)cc1 (stereo unspecified),-2%,-19%
COc1ccc(NC(=O)C[C@H]2C(=O)N(c3ccccc3)C[C@@H]2Cc2ccccc2)cc1,-12%,-2%
Cc1c(C(=O)O)sc2ncnc(N3CCCCC3C)c12 (stereo unspecified),-8%,-13%
COC(=O)C1=C(c2ccc(-c3ccccc3)c(F)c2)C[C@@H]2CC[C@H]1N2C(=O)NCCNC(C)=O,-17%,i
O=C1NC2c3c(I)sc(I)c3C(=O)C2O1 (stereo unspecified),?,10µM*
Cc1cc(NS(=O)(=O)c2ccc(NC(=O)Cc3ccccc3)cc2)nc(C)n1,-12%,i
COc1cc(NC(=O)CCS(=O)(=O)c2nc(-c3ccc4c(c3)OCO4)cc(C(F)(F)F)n2)cc(OC)c1OC,2%,-15%
CC(C)C(NC(=O)c1ccccc1NC(=O)c1ccccc1)C(=O)NCCCn1ccnc1 (stereo unspecified),-1%,i
CCOCCCNC(=O)C1(O)c2ccccc2NC(=O)N1c1ccc(Cl)c(Cl)c1 (stereo unspecified),-9%,-22%
COc1ccc(-n2c(C)nc(=O)c(-c3ccccc3)c2C)cc1,-7%,-7%
CSc1nc2ccc(S(=O)(=O)N3CCOCC3)cc2s1,-11%,-16%
CCN1CCN(Cc2ccc(NC(=O)c3ccc(C)c(NC(=O)c4cccc(-c5cn[nH]c(=O)c5)c4)c3)cc2C(F)(F)F)CC1,7.1µM*,?
COc1cc(CN2CCCCCC2)cc(OC)c1,-11%,-12%
CCOc1ccc2nc(NC(=O)CS(=O)(=O)c3ccc(Cl)cc3)sc2c1,-2%,-10%
Nc1c(C(=O)N/N=C/c2ccccc2Cl)oc2nc(-c3ccccc3)cc(-c3ccco3)c12,19%,?
Cc1ccc(-c2noc(-c3ccccc3C(=O)N3CCCC3)n2)cc1,-18%,-6%
COc1ccc(C(=O)Nc2ccc3c(c2)CCCN3C(=O)c2cccs2)c(OC)c1,-22%,-24%
Cc1ccc(OCC(=O)N/N=C/c2cccc3cccnc23)cc1,11%,?
CC(=O)N[C@@H](Cc1c[nH]c2ccccc12)C(=O)NC1CCCc2ccccc21 (stereo partly specified),-11%,i
Cc1ccc2oc(=O)c3cc(C(=O)N4CCN(c5ccccc5F)CC4)sc3c2c1,-1%,5%
COCCC1CCCCN1C(=O)c1cccc(OC2CCN(S(C)(=O)=O)CC2)c1 (stereo unspecified),-15%,i
O=C(COC(=O)C1CCN(S(=O)(=O)c2cccs2)CC1)c1ccccc1,1%,4%
O=C(COc1ccc(Br)cc1CO)Nc1ccc(F)cc1,-20%,-17%[1.46 µM]
Cc1cccn2c(=O)c3cc(S(=O)(=O)c4ccccc4)c(=N)n(CC4CCCO4)c3nc12 (stereo unspecified),-9%[7.34 µM],i[7.34 µM]
COc1cc2c(cc1OC)[C@@H]1Cc3ccc(OC)c(OC)c3CN1CC2,1%,-10%
COc1cc2c(cc1NC(=O)CSc1nc3cc(Cl)ccc3s1)oc1ccccc12,-3%,-9%
Cc1cccc(Oc2ccc(C(=O)NC3CCSC3=O)cn2)c1C (stereo unspecified),-4%,nt
CC(=O)N1CCc2cc(S(=O)(=O)N3c4ccccc4CC3C)ccc21 (stereo unspecified),-24%,?
COc1ccc(NC(=O)c2ccc(-c3c(C)noc3C)c3ccoc23)cc1,-10%,-4%
CN(C)CCCn1c(SCC(=O)N2CC(=O)Nc3ccccc32)nc2ccccc2c1=O,7%,-7%
COc1ccc(CCNC(=O)C2CCN(c3nn4c(=O)cc(C)nc4s3)CC2)cc1OC,-13%,-9%[1.46 µM]
CCOC(=O)c1c(O)c(O)c(C(=O)OCC)n1-c1ccccc1,-17%,0%
CS(=O)(=O)c1cccc(C(=O)Nc2ccc3c(c2)OCCCO3)c1,-8%,-9%
CCN=C(NCC)SC1CC(=O)N(c2cccc(OC)c2)C1=O (stereo unspecified),-6%,-11%
CCOC(=O)CSc1nc(-c2ccccc2)ns1,-23%,-13%
CC(=O)Nc1ccc(S(=O)(=O)NC2(c3ccccc3)C(=O)N(C)C(=O)N(C)C2=O)cc1,-4%,i
CC1CC(C)CN(C(=O)C2CCN(C(=O)Nc3ccccc3)CC2)C1 (stereo unspecified),-8%,-7%
Cc1cc(C)c(S(=O)(=O)N2CCC(C(=O)NCc3ccncc3)CC2)c(C)c1,-7%,i

# Four entries from above, set out differently:
# Fields: Vaccinia Venus | VACV mCherry inh
COc1cc2c(cc1NC(=O)CSc1nc3cc(Cl)ccc3s1)oc1ccccc12
    -3% | -9%
CCOC(=O)c1c(O)c(O)c(C(=O)OCC)n1-c1ccccc1
    -17% | 0%
CC(=O)Nc1ccc(S(=O)(=O)NC2(c3ccccc3)C(=O)N(C)C(=O)N(C)C2=O)cc1
    -4% | i
Cc1cc(C)c(S(=O)(=O)N2CCC(C(=O)NCc3ccncc3)CC2)c(C)c1
    -7% | i

# From PubChem BioAssay
